Bioassay records deposited in PubChem by National Center for Advancing Translational Sciences (NCATS).
Rango complex inh: qHTS Assay for Inhibitors of Rango (Ran-regulated importin-beta cargo) - Importin beta complex formation. Importin subunit beta-1 (Homo sapiens), Q14974. Potency, µM (series often up to 92.2 µM), inactives show top-dose inhibition of complex formation. Rango CFP/YFP FRET sensor + importin beta, 45 min. actives 0.031% (n = 340,000). AID 540263, 2011; active = rising FRET ratio curve, often small or poorly fitted; inconclusive = mostly compound fluorescence or quenching in the first reads; inactive = flat curves in all reads;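 further: potency means the concentration at half of the fitted maximal effect; 0% = DMSO wells and 100% = buffer wells lacking importin beta; nearly all actives have a fitted effect of over 15% in size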
Target sequence (Q14974 whole entry, looked up): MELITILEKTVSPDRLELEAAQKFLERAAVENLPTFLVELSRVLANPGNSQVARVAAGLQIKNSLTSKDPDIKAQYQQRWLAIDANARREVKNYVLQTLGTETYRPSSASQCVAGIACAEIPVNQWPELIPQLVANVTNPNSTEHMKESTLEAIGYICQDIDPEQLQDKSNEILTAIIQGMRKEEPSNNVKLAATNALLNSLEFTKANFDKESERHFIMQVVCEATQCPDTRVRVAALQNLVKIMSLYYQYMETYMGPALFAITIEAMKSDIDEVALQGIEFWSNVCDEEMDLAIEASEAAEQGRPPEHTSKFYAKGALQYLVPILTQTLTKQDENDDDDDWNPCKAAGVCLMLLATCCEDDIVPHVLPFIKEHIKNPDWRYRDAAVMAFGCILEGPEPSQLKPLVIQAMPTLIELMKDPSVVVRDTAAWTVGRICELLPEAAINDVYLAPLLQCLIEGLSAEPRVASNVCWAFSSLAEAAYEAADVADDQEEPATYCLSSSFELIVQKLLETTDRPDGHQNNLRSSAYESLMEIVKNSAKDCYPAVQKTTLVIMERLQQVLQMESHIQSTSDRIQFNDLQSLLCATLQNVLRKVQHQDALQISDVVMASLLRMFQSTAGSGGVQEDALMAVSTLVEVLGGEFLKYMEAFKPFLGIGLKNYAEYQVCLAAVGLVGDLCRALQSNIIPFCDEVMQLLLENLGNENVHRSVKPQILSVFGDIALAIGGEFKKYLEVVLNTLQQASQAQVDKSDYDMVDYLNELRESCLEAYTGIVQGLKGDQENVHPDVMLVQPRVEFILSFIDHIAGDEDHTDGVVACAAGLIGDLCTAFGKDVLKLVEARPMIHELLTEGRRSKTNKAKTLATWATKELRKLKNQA
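FRET biosensor (snurportin 1 IBB flanked by EYFP and cerulean), 50 nM, with compound 5 min, then 0.125 microM importin beta in PBS, 1 mM DTT, 0.02% Tween-20, 0.1% BSA. CFP/YFP ratio read after 45 min at room temperature; pre-read flags interference.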
miR-21 FLuc: qHTS Assay for Modulators of miRNAs and/orActivators of miR-21. 340,000 tested, under 10 active. Potency, µM (top dose mostly 38.3 µM), without a hit: at the highest dose reporter change, positive = more light. HeLa miR-21 FLuc reporter, luciferase, 48 h; active = well fitted rising curve with a large enough effect; inconclusive = small, poorly fitted or top-dose-only effect; inactive = no such curve, though single readings can be large or run the other way;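 further: % of control where 0% means no effect; miR-21 action dims this reporter so a rising signal means less miR-21 action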
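Luminescence from a firefly luciferase reporter carrying a miR-21 binding site downstream, stably expressed under a CMV promoter in HeLa cells that make miR-21 endogenously, reports miRNA modulation after 48 h compound exposure up to approximately 40uM final.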
Rango release inh: qHTS Assay for Inhibitors of RanGTP induced Rango (Ran-regulated importin-beta cargo) - Importin beta complex dissociation. Snurportin-1 (Homo sapiens) + GTP-binding nuclear protein Ran (Homo sapiens) + Importin …. Potency, µM (titrated, usually from 46.1 µM), for the others: at the highest dose activity change, negative = inhibition. AID 540253, 2011. Biochemical FRET Rango-importin beta, RanGTP-induced dissociation. actives 0.071% (n = 340,000); active means falling FRET ratio curve, often poorly fitted, with flat reads before Ran was added; inconclusive means other falling curves, or compound fluorescence or quenching; inactive means flat or rising ratio curve;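 further: potency means the concentration at half of the fitted maximal effect; % of control where 0% means no effect; nearly all actives have a fitted effect of over 45% in size; -100% = wells without RanGTP and RCC1; the record marks most hits as doubtful in a second field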
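Two FRET readings bracket the reaction: one 5 min after compound meets Rango–importin beta, another 45 min after RanGTP-RCC1 (0.6 uM Ran, 0.2 uM RCC1, 2 mM GTP) is added. Only the second defines inhibition.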
GLA inh pH 4.5: qHTS Assay for Inhibitors of Human alpha-Galactosidase at pH 4.5 | Alpha-galactosidase A (Homo sapiens), P06280 | purified enzyme, 4-MU-alpha-Gal fluorescence, pH 4.5 | activity change, negative = inhibition, % at 105 µM | 230,000 tested, under 10 active | AID 1467, 2008; inconclusive = small, poorly fitted or top-dose-only inhibition, or a rising curve; inactive = flat fitted curve, though single readings scatter; no compound was filed as active;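 further: 0% = full activity with enzyme and -100% = basal without enzyme; dose as in the result columns while the protocol names 77 µM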
The depositor's hits bear a star; u = inconclusive; x = not tested or not shown; & = joins results of further samples. Only part of the results is shown (hit frequency here may not be typical).

item	Rango complex inh	miR-21 FLuc	molecule	Rango release inh	GLA inh pH 4.5
1	2.5%	x	CCN(C[C@H]1N[C@@](C)(C(=O)OC)[C@H]2C(=O)N(Cc3ccccc3)C(=O)[C@@H]12)C(=O)COC	7%	x
2	-4.5%	-25%	O=C(CCS(=O)(=O)c1ccccc1)Nc1ccc(Cl)cn1	-4%	x
3	-3.2%	x	Cc1cc(=O)oc2cc(OCC(=O)N3CCCC3)c(Cl)cc12	-4%	x
4	-0.3%	-8%	O=C(Nc1ccccc1F)c1ccc(S(=O)(=O)NCC2CCCO2)cc1 (centres undefined)	1%	-5
5	-5.3%	0%	COc1ccc(/C=C(\C#N)C(=O)NCc2cccnc2)cc1OC	1%	2
6	-1.5%	-1%&0%	CCC1CN(C(=O)N2CCC(C(=O)NCc3ccc(C)o3)CC2)c2ccccc2O1 (centres undefined)	-6%	x
7	-0.3%	5%	O=C(N/N=C/c1ccc([N+](=O)[O-])o1)c1sc2ccccc2c1Cl	-5%	-3
8	1.6%	-1%	CCOc1ccccc1C1CC(=O)Nc2cc(OC)c(OC)cc21 (centres undefined)	0%	x
9	-1.7%	-1%	O=C(N/N=C/c1c(O)ccc2ccccc12)c1ccc[n+](CCO)c1	14%	-3
10	1.3%	-3%	O=C1CC(c2ccccc2)CC(O)=C1C=NCc1ccc(Cl)cc1 (centres undefined)	-5%	6
11	0.3%	1%	CC(=O)c1ccc(OCc2cc(C(=O)NCCN3CCCC(O)C3)no2)cc1 (centres undefined)	11%	x
12	-3.0%	-17%	CCCCCOc1ccc(NC2=CC(=O)CCC2)cc1	4%	x
13	-1.0%	-73%	O=C(NCCc1c[nH]c2ccccc12)c1ccc(Cl)cc1	-2%	x
14	0.5%	-8%	Cc1ccc2nsnc2c1S(=O)(=O)Nc1cccc2nsnc12	13%	2
15	-0.7%	12%	CC(C)N1C(=O)/C(=C\c2nc3ccccc3c(=O)n2-c2ccccc2)c2ccccc21	-9%	-21
16	4.6%	x	COc1ccc(/C=N\NC(=O)c2cccc(F)c2)cc1COc1ccccc1	-5%	x
17	u	22%	Cc1nc2ccc(NC(=O)c3cccc(S(=O)(=O)N(C)c4ccccc4)c3)cc2s1	-12%	-6
18	0.1%	u	Cc1cccc(NC(=S)NNc2ncc(C(F)(F)F)cc2Cl)c1	7%	0
19	3.2%	1%	Cc1ccccc1NC(=O)CCc1nnc2ccc(N3CCC4(CC3)OCCO4)nn12	-8%	x
20	0.8%	5%	CCOc1ccc(N2CC(C(=O)N3CCCC3)CC2=O)cc1 (centres undefined)	-7%	x
21	3.7%	-16%	COCC(=O)Nc1ccc2nc3n(c(=O)c2c1)CCCCC3	6%	-2
22	0.7%	-10%	CCn1cc(Br)c(C(=O)N2CCN(c3ccccc3)CC2)n1	23%	0
23	3.0%	-1%	Cc1ccnc(NS(=O)(=O)c2ccccc2)n1	1%	-2
24	4.5%	3%	COc1ccc(NC(=O)COC(=O)C2CCCCC2)c([N+](=O)[O-])c1	1%	0
25	-2.0%	3%	CC(C)C(C(=O)N1CCN(Cc2ccccc2)CC1)c1ccccc1 (centres undefined)	19%	x
26	-0.8%	x	CC(C)[C@H]1COCCS(=O)(=O)N1Cc1ccccc1-c1cccc2c1oc1ccccc12	4%	x
27	-0.1%	13%	O=C(COc1ncnc2scc(-c3ccc(Cl)cc3)c12)NCc1ccco1	3%	1
28	-0.1%	6%	CC1CCN(C(=O)Cn2c(=O)c3cccn3c3ccccc32)CC1	-2%	x
29	2.9%	-1%	Cc1nc2ncnn2c(C)c1CCC(=O)N1CCCCC1	3%	5
30	x	2%	COc1ccc2c(c1)O[C@@H](c1cccc(C(F)(F)F)c1)[C@H](OC(=O)NCCc1ccc(OC)c(OC)c1)C2=O	x	u

The closing 3 entries of the section above are carried over, then new ones follow.
item	Rango complex inh	miR-21 FLuc	molecule	Rango release inh	GLA inh pH 4.5
28	-0.1%	6%	CC1CCN(C(=O)Cn2c(=O)c3cccn3c3ccccc32)CC1	-2%	x
29	2.9%	-1%	Cc1nc2ncnn2c(C)c1CCC(=O)N1CCCCC1	3%	5
30	x	2%	COc1ccc2c(c1)O[C@@H](c1cccc(C(F)(F)F)c1)[C@H](OC(=O)NCCc1ccc(OC)c(OC)c1)C2=O	x	u
31	6.0%	-10%	CN(c1ccccc1)S(=O)(=O)c1ccc(NC(=S)NC(=O)c2ccccc2)cc1	9%	-1
32	-0.5%	3%	O=c1nccc(NCc2ccco2)[nH]1	25%	2
33	u	-7%	COc1ccc(-c2nn(-c3ccccc3)cc2/C=N/Nc2ccc(S(N)(=O)=O)cc2[N+](=O)[O-])cc1OC	3%	3
34	-0.1%	-9%	CC(C)(C)C1CCC(=NNC(=O)C(=O)NC2CCCCC2)CC1 (centres undefined)	4%	3
35	-1.8%	-3%	Cc1ccc(-n2nc(C)c3c(C)c(CCC(=O)NCc4ccccc4)c(C)nc32)cc1	-2%	2
36	0.0%	1%	O=C(CCc1c[nH]c2ccccc12)NCCc1ccc(Cl)cc1	-2%	x
37	-1.2%	x	Cc1ccc(S(=O)(=O)N2CCCCC2)cc1NC(=O)COc1ccccc1	23%	x
38	-2.2%	x	CCOc1ccccc1N1CCN(C(=O)CSc2ccc3c(c2)OCCO3)CC1	12%	x
39	-3.1%	-1%	CC(C)c1c(C(=O)N/N=C/C=C/c2ccccc2)nnn1-c1nonc1N	-12%	x
40	-2.0%	-4%	COCCOC(=O)CSc1ncccc1-c1nc2cc(C)c(C)cc2[nH]1	-5%	4
41	-3.2%	5%	O=c1c(-c2ccnn2-c2ccc(F)cc2)cnc2n1CCS2	21%	2
42	1.6%	-1%	CC(=O)OCc1c(C(F)(F)F)nn(C)c1Oc1cccc(C(F)(F)F)c1	4%	-3
43	-0.1%	-5%	COc1ccc(C2CC3(CC(C)(C)NC(=S)N3)Oc3cc(O)cc(C)c32)cc1 (centres undefined)	-28%	1
44	1.5%	-62%	O=[N+]([O-])c1ccc2nc(-c3ccncc3)[nH]c2c1	u	-8
45	-2.6%	0%	O=C(OCc1nc2ccccc2s1)c1ccc([N+](=O)[O-])o1	17%	x
46	3.5%	0%	CCN(CC)S(=O)(=O)c1ccc(NC(=O)CSc2nnc(-c3ccc(F)cc3)o2)cc1	-5%	0
47	3.0%	-19%	COc1ccccc1Cc1nc(-c2ccncc2)no1	13%	-3
48	4.2%	-3%	N#Cc1c(-c2ccccc2)nc(SCC(=O)Nc2ccccc2F)[nH]c1=O	1%	2
49	-1.2%	22%	CC1=CC(C)(C)N2C(=O)C3(N=C(N)NC(Nc4ccccc4)=N3)c3cc(C)cc1c32 (centres undefined)	-17%	-3
50	-5.9%	-1%	CC1(c2nnc(-c3cccc(Cl)c3)o2)CC(c2cccc([N+](=O)[O-])c2)=NO1 (centres undefined)	3%	x
51	1.9%	-42%&-42%	CNS(=O)(=O)c1ccc(OC)c(-c2nnc3c4ccccc4c(C)nn23)c1	12%	-25
52	-2.6%	9%	COc1ccccc1N1CCN(C(=S)Nc2ccc3nc(N4CCOCC4)cc(C)c3c2)CC1	-7%	5
53	x	-14%	CCn1cc(C(=O)N2CCc3ccccc3C2)c(=O)c2cc(S(=O)(=O)N3CCCCC3)ccc21	x	-9
54	5.2%	x	CSc1ccccc1NC(=O)COC(=O)CCC(=O)c1ccc(F)cc1	0%	x
55	1.7%	-8%	C=CCn1c(=O)c(C(=O)Nc2ccccc2C(=O)OCC)c(O)c2ccccc21	1%	-4
56	0.2%	0%	O=C(Cc1ccccc1)NC(=S)Nc1cc(C(F)(F)F)ccc1Cl	2%	-5
57	5.8%	-34%	CCOc1ccc(N/C=C/C(=O)c2ccccc2)c([N+](=O)[O-])c1	0%	-2
58	u	x	O=C(OCC(=O)N1N=C(c2ccc(Cl)cc2)CC1c1ccco1)c1cccnc1 (centres undefined)	-12%	x
59	u	-3%	O=C(O)c1ccc(N/N=C/c2cc(Br)cs2)cc1	-2%	x
60	u	-8%	COCC(=O)N(Cc1cc2cc(OC)ccc2[nH]c1=O)c1ccccc1OC	1%	7
61	-0.2%	0%	O=C(NCC1CCCN(C(=O)c2cc(Cl)ccc2F)C1)c1ccc(F)cc1 (centres undefined)	-9%	x
62	-0.6%	-1%	Cc1ccc(S(=O)(=O)N2CCC(=O)N2)cc1	-3%	-18
63	u	15%	NC(=O)c1sc2nc3c(c(-c4ccco4)c2c1N)CCC3	u	-3
64	-4.4%	x	Cc1cccc(OCC(=O)N(Cc2nnc(-c3ccccc3Cl)o2)C2CC2)c1	-12%	x
65	5.4%	-3%	COc1cc(CN2CCC(C(=O)N3CCCC(C)C3)CC2)cc(OC)c1O (centres undefined)	0%	2
66	-1.0%	x	O=C1C2CCCCN2C(=O)N1CCCN1CCN(c2cccc(C(F)(F)F)c2)CC1 (centres undefined)	15%	x
67	-0.1%	0%	Cc1nc(N)sc1C(=O)N1N=N1	-13%	-15
68	-0.4%	-2%	CN(C)C(=O)CSc1nnc(CCN)o1	-8%	-4
69	-3.2%	-31%	Cc1ccc(NC(=O)c2ccc(OCC3CCCO3)cc2)cc1 (centres undefined)	-4%	6
70	2.6%	u	COc1ccc(-c2nnc(SCC(=O)N(Cc3ccccc3)C(C)(C)C)o2)cc1OC	17%	x
71	1.2%	-8%	O=C(/C=C/c1ccco1)Nc1ccccc1C(=O)O	-2%	-1
72	-0.4%	0%	COc1ccc(S(=O)(=O)N2CCC(C(=O)NCc3cccs3)CC2)cc1	11%	5
73	0.7%	-31%	C=CCn1cccc(C(=O)Nc2ccc(C)cc2)c1=O	-11%	x
74	u	-26%	O=C(/C=C/Nc1ccc([N+](=O)[O-])cc1)c1ccc(Br)cc1	u	-1
75	-2.5%	x	Nc1c(N(Cc2ccccc2)C(=O)COc2ccc(F)cc2Cl)c(=O)[nH]c(=O)n1Cc1ccccc1	4%	x
76	-0.3%	0%	O=C(N/N=C/c1ccc([N+](=O)[O-])cc1)c1cc(-c2ccc3c(c2)OCO3)n[nH]1	0%	3
77	-2.0%	-2%	CC1=NN(Cc2c(C)nn(Cc3ccccc3)c2C)C(C)(C)C1	10%	12
78	2.1%	-1%	NS(=O)(=O)c1ccc(N=Nc2c(=O)[nH]n3c(=O)c4c([nH]c23)CCCC4)cc1	7%	-14
79	u	-18%	C=CCNC(=S)Nc1sc2c(c1C#N)CCCC2	-18%	0
80	3.0%	-53%	COc1cc(CNc2ccc(C)c(C)c2)cc(OC)c1OC	-12%	5
81	-0.9%	2%	Cc1csc(SCC(=O)NC(C)c2ccccc2)n1 (centres undefined)	9%	1
82	-3.0%	19%	CCO[C@@H]1OC(C(=O)N2CCN(Cc3ccccc3)CC2)=C[C@H](c2ccc(Br)cc2)[C@H]1CCCO	-8%	-12
83	0.9%	-38%	c1ccc2c(c1)Nc1cc3ccccc3cc1S2	-10%	-1
84	1.8%	5%	COCCn1c(SCC(=O)Nc2ccc(C)cc2C)nc2c(oc3ccccc32)c1=O	5%	0
85	-2.7%	1%	CCc1ccc2c(c1)C(=O)C(=O)N2CCS(=O)(=O)c1ccccc1	-4%	x
86	0.4%	-3%	COC(=O)c1cccc(C(=O)N2CCCC(C(=O)c3ccccc3OC)C2)c1 (centres undefined)	29%	x
87	-1.2%	19%	CCC1CN(C(=O)N2CCC(C(=O)NCc3ccccc3OC)CC2)c2cc(C)ccc2O1 (centres undefined)	4%	x

One compound at a time, as listed above. Screens in order: Rango complex inh | miR-21 FLuc | Rango release inh | GLA inh pH 4.5
Results for O=C(/C=C/c1ccco1)Nc1ccccc1C(=O)O = 1.2% | -8% | -2% | -1
Results for Nc1c(N(Cc2ccccc2)C(=O)COc2ccc(F)cc2Cl)c(=O)[nH]c(=O)n1Cc1ccccc1 = -2.5% | x | 4% | x
Results for O=C1C2CCCCN2C(=O)N1CCCN1CCN(c2cccc(C(F)(F)F)c2)CC1 (centres undefined) = -1.0% | x | 15% | x
Results for C=CCn1cccc(C(=O)Nc2ccc(C)cc2)c1=O = 0.7% | -31% | -11% | x
